VDR inh: blocks the human vitamin D receptor; P11473; VDR-SRC2-3 peptide fluorescence polarization, 2 h; Potency, µM, without a hit: max response, negative = inhibition, most hits filed as inhibitors; 400,000 tested, 0.93% active; AID 504847; active = well fitted inhibition curve with a large enough effect; inconclusive = small, poorly fitted or top-dose-only effect, or another doubt; inactive = no such curve, though single readings can be large or run the other way; note: series mostly up to about 120 µM
Target sequence (P11473 whole entry, looked up): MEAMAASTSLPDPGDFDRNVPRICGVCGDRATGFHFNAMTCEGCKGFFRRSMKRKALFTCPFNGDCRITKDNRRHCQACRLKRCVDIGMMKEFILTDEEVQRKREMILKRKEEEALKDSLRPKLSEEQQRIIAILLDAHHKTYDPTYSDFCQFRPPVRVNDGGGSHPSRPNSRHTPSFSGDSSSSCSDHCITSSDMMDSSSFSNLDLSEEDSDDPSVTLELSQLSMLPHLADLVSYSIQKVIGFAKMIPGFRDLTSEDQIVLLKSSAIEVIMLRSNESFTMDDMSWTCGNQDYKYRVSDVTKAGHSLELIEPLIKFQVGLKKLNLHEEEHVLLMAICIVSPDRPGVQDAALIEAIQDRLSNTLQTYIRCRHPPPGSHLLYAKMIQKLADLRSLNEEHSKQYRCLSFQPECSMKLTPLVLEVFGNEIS
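Two reagent solutions held at 4 deg C in the dark were dispensed, compounds pinned at 23 nl, and the mixture incubated 2 h at room temperature. Read-out: fluorescence polarization of VDR–SRC2-3 peptide binding.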
An asterisk follows results filed as active; ? = inconclusive; & = joins results of further samples. % is set by controls: 0 for no effect and ±100 for the full control effect; potency is the fitted concentration of half-maximal effect. A portion of the library. The share of hits here may be higher or lower than overall.

SMILES	VDR inh
O=C(Nc1ccc(Br)cc1)c1cccc(NC(=O)C2C3CC4OC(=O)C2C4C3)c1 (stereo not drawn)	-0.3%
Cc1nnc(SCC(=O)N2c3ccccc3CC2C)[nH]c1=O (stereo not drawn)	-18.9%
COC(=O)c1ccc(NC(=O)CN(C2CCCCC2)S(C)(=O)=O)cc1	-3.3%
c1ccc(Cn2nnc3c(NCC4CCCO4)nc(C4CC4)nc32)cc1 (stereo not drawn)	-4.0%
O=C(CCN1C(=O)c2ccccc2S1(=O)=O)NCc1ccc(F)cc1	-2.1%
COC(=O)c1ccc2c(c1)N(CC(=O)Nc1cccc(Cl)c1C)C(=O)c1ccccc1S2	16.6%
COc1ccc(Nc2nc(C(=O)N3CCc4ccccc4C3)cs2)cc1	5.6%
CN(Cc1ccccc1)C(=O)COC(=O)c1ccc(Cl)cc1N	-0.4%
CC(NC(=O)c1ccco1)C(=O)O (stereo not drawn)	-21.4%
CCCCC(=O)Nc1ccc(Cl)cn1	-11.6%
Cc1ccc(-n2nc(N)c3c(=O)oc(N(C)C)nc32)cc1	1.4%
Cc1nc(SCCO)c2oc3ccccc3c2n1	-6.7%
CCCn1c(=O)c(C(=O)c2ccccc2)nc2ccccc21	-11.2%
CC1(c2nnc(Cc3ccccc3)o2)CC(c2ccc(OC(F)(F)F)cc2)=NO1 (stereo not drawn)	-3.9%
COc1ccc(N(CC(=O)Nc2ccccc2C(=O)N2CCCC2)S(C)(=O)=O)cc1	6.8%
CCCC(=O)Nc1c2c(nn1-c1ccc(C)cc1C)CSC2	-21.2%
CCCOc1ccccc1C1C(C(=O)Nc2ccccc2)=C(C)Nc2nnnn21 (stereo not drawn)	11.9%
COc1ccc(NC(=O)Cn2cc(S(=O)(=O)N3CCC(C)CC3)c3ccccc3c2=O)cc1Cl	-26.0%
N#CC1=C(N)N(c2ccccc2)C(c2ccco2)C1(C#N)C#N (stereo not drawn)	-12.5%
CC1CCc2nc(NC(=O)Cc3ccc(Cl)cc3)sc2C1 (stereo not drawn)	7.4%
CCC1NC(=S)NC(C)=C1C(=O)c1ccccc1 (stereo not drawn)	-1.7%
COc1cc(NC(=O)CSc2nc3nc(C)c(Cc4ccccc4)c(C)n3n2)cc(OC)c1OC	10.7%
COc1cc(C2c3cc4c(cc3OC(N3CCCCC3)C2C)OCO4)cc(OC)c1O (stereo not drawn)	-23.2%
CN(CC(=O)Nc1ccc(F)c(F)c1F)C(=O)Cc1ccc(S(=O)(=O)N2CCOCC2)s1	-9.1%
Cc1cnc(CNc2ncncc2-c2ccccc2Cl)cn1	0.0%

Next part.
SMILES	VDR inh
CC1CCCN(C(=O)CCS(=O)(=O)Cc2ccccc2)C1 (stereo not drawn)	-6.3%
CCC1CCCN1Cn1cnc2c([nH]c3ccc(C)cc32)c1=O (stereo not drawn)	-6.1%
CCN(CC)S(=O)(=O)c1ccc(C(=O)OCC(=O)N2CCN(C(=O)c3ccco3)CC2)cc1	-16.8%
Cc1ccc(N2C(=S)NC3c4cc(Cl)ccc4OC2(C)C3C(=O)N(C)C)cc1 (stereo not drawn)	-0.4%
COc1cccc(NC(=O)C2CSC3(C)CCC(=O)N23)c1 (stereo not drawn)	-16.2%
CC1=N/C(=C\c2ccccc2Cl)C(=O)O1	-3.9%
Cc1cc(C)n2nc(C(=O)N/N=C/c3cccs3)nc2n1	-17.1%
Cc1ccc(NC(=O)Cn2c(=O)n(Cc3ccco3)c(=O)c3sc4ccccc4c32)c(C)c1	2.5%
COc1ccc(Nc2nc(N)c([N+](=O)[O-])c(N3CCCC3)n2)cc1	3.9%
CCOC(=O)CSc1nc2cc3c(cc2cc1C)OCO3	-5.7%&16.5%
CC1(C)C(=O)Nc2ccccc2N1C(=O)COC(=O)C12CC3CC(CC(O)(C3)C1)C2	14.1%
O=C1c2ccccc2C(O)(c2ccccc2)N1c1ccncc1 (stereo not drawn)	-5.7%
CCN1C(=O)C=CC1=O	-5.2%
CC(=O)c1c(N2CCOCC2)nc(=S)n(Cc2ccccc2)c1C	-4.7%
Cc1cc(C)n(C(=O)C(C)n2nc([N+](=O)[O-])c(Br)c2C)n1 (stereo not drawn)	-24.3%
CCN1C(=O)C(CC(=O)Nc2ccc(F)cc2)N(CCc2ccc(OC)cc2)C1=S (stereo not drawn)	-2.0%
Cc1ccc2occ(CC(=O)N(Cc3ccc(N(C)C)cc3)C3CCS(=O)(=O)C3)c2c1 (stereo not drawn)	11.1%
O=C(Nc1c[nH]c(=O)[nH]c1=O)c1cccc(F)c1	-9.6%
N#Cc1ccc(S(=O)(=O)N2CCN(C(=O)c3cn(-c4ccccc4)nc3-c3cccnc3)CC2)cc1	24.1%
O=C(Nc1sc2c(c1C(=O)O)CCC2)C(=O)N1CCOCC1	-1.0%
Clc1ccc(-n2cccc2/C=N/n2cnnc2)cc1	7.2%
CCCCc1ccc(NC(=S)N2CCN(c3ccccn3)CC2)cc1	0.8%
CCN(C[C@H]1N[C@@](CC)(C(=O)OC)[C@H]2C(=O)N(Cc3ccccc3)C(=O)[C@@H]12)C(=O)Nc1ccc(C)cc1	8.9%
COc1ccc(N=Cc2c(O)ccc3ccccc23)cc1	6.3%
CC(=O)Nc1cnc2ccccc2n1	-0.5%

The listing continues.
SMILES	VDR inh
CC1=C(C(=O)NCc2ccccc2)C(c2cccnc2)n2ncnc2N1 (stereo not drawn)	-3.1%
Cc1[nH]oc(=O)c1N=Nc1c(Cl)cccc1Cl	-4.8%
CCOC(=O)c1c(N)nn(C(=O)C(C)C)c1-c1ccc(OC)cc1	3.5%
CS(=O)(=O)c1ccccc1-c1nnc(NC(=O)c2ccc3c(c2)OCCO3)o1	6.6%
COc1ccccc1OCCSc1nnc(C)n1-c1ccccc1	4.9%
O=C(CCC(=O)N(CC(=O)NC1CCCC1)Cc1ccccc1Cl)Nc1nccs1	5.6%
CCOC(=O)N1CCN(C(=O)c2cnn3c(C)c(Cc4ccc(C)cc4)c(C)nc23)CC1	0.2%
CC1CCCC(C)N1/N=C/c1ccc(O)c(O)c1 (stereo not drawn)	3.8%
COC(=O)CSc1nc(C)cc(C)n1	?
Cc1ccc2c(CN3CC(C)CC(C)C3)cc(=O)oc2c1 (stereo not drawn)	-7.3%
COc1ccc(CCN2CCC(CN3C(=S)NC[C@@H]3CC(C)C)CC2)cc1OC	1.5%
CC(C)CC(OC(=O)c1cccs1)C(=O)NCc1cccs1 (stereo not drawn)	7.3%
C[C@H]1CN[C@@H](CCO)/C1=C\c1ccccc1	-6.8%
COc1ccc(C(=O)Nc2ccc(-c3ccc(C)o3)cc2)cc1S(=O)(=O)N1CCOCC1	12.7%
COc1ccc(N2CCN(c3nc4c(c(=O)n(C)c(=O)n4C)n3Cc3ccccc3)CC2)cc1	2.2%
COc1cc2c(cc1OC)CN(C(=O)C1CCCN1S(=O)(=O)c1ccc(C)cc1)CC2 (stereo not drawn)	-4.5%
O=C1CC(NCc2ccc(F)cc2)C(=O)N1c1ccccc1 (stereo not drawn)	11.9%
COc1cc(C(=O)N2CCC(NC(=O)C(Cc3ccccc3)NC(C)=O)CC2)cc(OC)c1OC (stereo not drawn)	0.4%
Cc1ccc2nc(NC(=O)c3ccc(OCC4CCCO4)cc3)sc2c1 (stereo not drawn)	4.5%
OCCC1CN(Cc2ccon2)CCN1Cc1ccccc1 (stereo not drawn)	-1.5%
CCOC(=O)c1cc2occc2n1CC(=O)NC1CCCCC1C (stereo not drawn)	2.9%
COc1cccc(C(=O)Nc2nc(-c3ccc(S(=O)(=O)N4CCOCC4)cc3)cs2)c1	-20.1%
c1ccc(-c2cc(-c3ccccc3)ncn2)cc1	-3.0%
COc1ccc(C(=O)NCCn2ccc3ccccc32)cc1	-8.5%
Cc1ccc(NC(=O)c2ccc(NC(=O)c3ccccc3)cc2)cc1C	-16.2%

(list continues)
SMILES	VDR inh
C=CCSc1nnc(NC(=O)CSc2ccccn2)s1	1.8%
CCOC(=O)N1CCN(S(=O)(=O)c2ccc(C(=O)N(CCCN(C)C)c3nc4cc(OC)ccc4s3)cc2)CC1	-16.3%
N/C(=N\OCc1ccc([N+](=O)[O-])cc1)c1ccncc1	16.7%
O=C1CCC(=O)N1CCSC(=S)N1CCSCC1	10.3%
CC(=O)N1CCCc2cc(S(=O)(=O)N3CCN(c4ccccc4F)CC3)ccc21	12.0%
CC(=O)Nc1ccc(N2CCCC2)cc1	9.9%
C/C(Cn1cnc([N+](=O)[O-])n1)=N\NC(=O)c1ccncc1	-0.3%
COc1cc(OC)c(NC(=O)/C=C/C(=O)O)cc1Cl	12.0%
Cc1c(NC(=O)CN2c3ccccc3CC2C)c(=O)n(-c2ccccc2)n1C (stereo not drawn)	-2.2%
CN(C(=O)c1ccc([N+](=O)[O-])cc1)c1ccccc1C(=O)NCc1ccccc1	12.6%
COc1ccccc1NC(=O)c1oc2ccccc2c1NC(=O)c1ccccc1C(F)(F)F	-8.6%
Cc1[nH]c2ccccc2c1C(Nc1nccs1)c1ccncc1 (stereo not drawn)	-7.0%
O=S(=O)(Nc1cc(C(F)(F)F)ccc1N1CCOCC1)c1ccccc1	-5.7%
CCN(CC)c1ccc(/C=N/NC(=O)c2c(Cl)c(C)nn2C)cc1	-4.3%
Brc1ccc2ncnc(Nc3cccc4ccccc34)c2c1	-5.0%
O=C(Oc1ccc(C(=S)N2CCOCC2)cc1Br)c1cc(Cl)ccc1Cl	-20.1%
CCN1C(=O)[C@@H]2[C@@H](c3ccc(-c4ccc(OC)cc4)c(OC)c3)N3CCCC[C@@]3(C(=O)OC)[C@@H]2C1=O	-14.0%
Cc1ccc(NC(=O)c2ccc(OC(F)F)cc2)cc1S(=O)(=O)N(C)C	13.2%
Cc1ccc(C2(C)NC(=O)N(CC(=O)Nc3cc(S(=O)(=O)N4CCOCC4)ccc3OC(C)C)C2=O)cc1 (stereo not drawn)	-3.3%
CC(c1ccc(F)cc1)n1c(-c2ccc3ccccc3n2)n[nH]c1=S (stereo not drawn)	4.5%
OC(COC(c1ccc(F)cc1)c1ccc(F)cc1)CN1CCCC(C(F)(F)F)C1 (stereo not drawn)	-1.1%
Cc1ccc(NCC(=O)N/N=C/c2cc(O)ccc2[N+](=O)[O-])cc1	1.4%
COc1cccc(-c2cc(NCc3cccnc3)ncn2)c1	?
COc1ccccc1C(=O)COC(=O)c1cccc(-n2cnnn2)c1	-3.8%
O=C(Nc1ccccc1)c1sc(N2CCOCC2)nc1-c1ccccc1	-1.0%

3 compounds already listed, sorted by SMILES length, highest first.
SMILES	VDR inh
CCN1C(=O)C(CC(=O)Nc2ccc(F)cc2)N(CCc2ccc(OC)cc2)C1=S (stereo not drawn)	-2.0%
Cc1cc(C)n(C(=O)C(C)n2nc([N+](=O)[O-])c(Br)c2C)n1 (stereo not drawn)	-24.3%
Cc1cc(C)n2nc(C(=O)N/N=C/c3cccs3)nc2n1	-17.1%

Returning to the listing, repeating the 7 entries before the break.
SMILES	VDR inh
Cc1ccc(C2(C)NC(=O)N(CC(=O)Nc3cc(S(=O)(=O)N4CCOCC4)ccc3OC(C)C)C2=O)cc1 (stereo not drawn)	-3.3%
CC(c1ccc(F)cc1)n1c(-c2ccc3ccccc3n2)n[nH]c1=S (stereo not drawn)	4.5%
OC(COC(c1ccc(F)cc1)c1ccc(F)cc1)CN1CCCC(C(F)(F)F)C1 (stereo not drawn)	-1.1%
Cc1ccc(NCC(=O)N/N=C/c2cc(O)ccc2[N+](=O)[O-])cc1	1.4%
COc1cccc(-c2cc(NCc3cccnc3)ncn2)c1	?
COc1ccccc1C(=O)COC(=O)c1cccc(-n2cnnn2)c1	-3.8%
O=C(Nc1ccccc1)c1sc(N2CCOCC2)nc1-c1ccccc1	-1.0%
CCn1c2ccccc2c2cc(CN3CCN(C(=O)c4ccco4)CC3)ccc21	-9.5%
CCc1ccc(NC(=O)CN2C(=O)C(c3ccc(C)cc3)=NC23CCCCC3)cc1	5.5%
Cc1nnc(N2CCN(c3ccccc3F)CC2)c2c1nnn2Cc1ccccc1Cl	10.4%
Cn1c2ccccc2c2cc(C(=O)N3CCN(CCO)CC3)sc21	7.0%
CCCCCCc1c(C[C@H](N)C(=O)O)o[nH]c1=O	-0.7%&-12.6%
COc1ccc(Cc2nnc(SCC(=O)c3cccc([N+](=O)[O-])c3)n2C)cc1	-30.5%
O=C(Nc1cc(S(=O)(=O)N2CCOCC2)ccc1N1CCOCC1)c1ccc(S(=O)(=O)N2CCCCC2)cc1	-3.2%
COc1ccc(OC)c(C2C3=C(CCCC3=O)Nc3nnnn32)c1 (stereo not drawn)	8.8%
O=C(c1cc(-c2ccc3c(c2)OCO3)on1)N1CCN(c2ccc(F)cc2)CC1	-2.7%
Clc1ccccc1CSc1snnc1-c1ccccc1	3.1%
CC(=O)c1c(C)[nH]c(C(=O)OCC(=O)Nc2cccnc2Cl)c1C	-22.1%
c1ccc(Cn2cnc3ccccc32)cc1	-16.6%
O=C(Cc1c[nH]c2ccccc12)OCCOC(=O)Cc1c[nH]c2ccccc12	-10.6%
Cc1ccc(N(C(=O)Cc2cccs2)C(C(=O)NC2CCCC2)c2ccncc2)cc1 (stereo not drawn)	18.7%
CC(=O)N1c2ccc(S(=O)(=O)N3CCCCC3)cc2CC1C(=O)Nc1ccc(C)cc1 (stereo not drawn)	-1.1%
Cc1ccc(C)c(S(=O)(=O)NC(Cc2c[nH]c3ccccc23)C(=O)O)c1 (stereo not drawn)	-3.8%
O=S(=O)(NCC(c1ccco1)N1CCN(c2ccc(F)cc2)CC1)c1cc(F)ccc1F (stereo not drawn)	13.6%
Cc1ccc(N2CC(C(=O)OCC(=O)c3c(N)n(CC(C)C)c(=O)n(C)c3=O)CC2=O)cc1 (stereo not drawn)	-3.3%
COc1cc(NC(=O)CN2CCCCC2)c(C)cc1[N+](=O)[O-]	-0.2%
CC(=O)C1=C(C)OC(N)=C(C#N)C1c1cc([N+](=O)[O-])ccc1Cl (stereo not drawn)	-6.4%
CC(=O)O/N=C(\N)c1cnn2c(C(F)(F)F)cc(C(F)(F)F)nc12	-7.3%
Cn1nnc2c(NCc3ccc(Cl)cc3)ncnc21	9.9%
COc1ccc(Cl)cc1C(=O)OCC(=O)NCc1cccs1	2.4%
CCCCn1c(/C=C/c2ccco2)nc2ccccc21	-18.3%
Cc1nc(SCc2ccc(F)cc2)c2oc3ccccc3c2n1	-2.2%
